Source: PubChem BioAssay
Vaccinia inh: blocks a specific stage of Vaccinia orthopoxvirus infection; Vaccinia-infected cells, mCherry/Venus stage reporter fluorescence; active compounds read low; some inactives read as strong as hits; activity change (mCherry), % (test concentration not listed); 0.01% of 89,000 active; AID 1053133;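 active = mCherry past -33% and 40 or more points under the early reporter, replicates agreeing; inconclusive = past -33% without that gap or agreement; tested in A549 cells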;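 also: scaled between vehicle wells and reference inhibitor wells; 23 nL library stock went into each well; one replicate is shown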
Vaccinia inh Venus: also measured in Vaccinia inh; calls as there; activity change (Venus), %; measured here: Venus reporter, other viral stage;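 negative = less Venus signal; first of two replicates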
* = called active by the depositor; ? = inconclusive; · = not tested or not shown. Only part of the results is shown; the hit share may differ from the screen's.

nr	Compound	Vaccinia inh	Vaccinia inh Venus
1	O=C(C[C@H]1CC[C@H](NC(=O)C2CCC2)[C@@H](CO)O1)NCCCN1CCOCC1	14	7
2	O=C(C[C@@H]1CC[C@H](NC(=O)c2ccc3c(c2)OCO3)[C@@H](CO)O1)NC1Cc2ccccc2C1	-9	-3
3	C[C@H]1CN([C@@H](C)CO)C(=O)Cc2cc(NC(=O)Nc3ccc(F)cc3)ccc2O[C@@H]1CN(C)Cc1ccc(C(F)(F)F)cc1	?	·
4	C[C@H]1CN([C@@H](C)CO)C(=O)c2cccc(NC(=O)NC3CCCCC3)c2O[C@H]1CN(C)Cc1ccccc1	-1	0
5	O=C(C[C@@H]1C[C@H]2c3cc(NC(=O)c4cccnc4)ccc3O[C@H]2[C@@H](CO)O1)NCc1ccc(Oc2ccccc2)cc1	-8	-7
6	COCC(=O)N1CC2(CCN(Cc3ccccc3)CC2)c2c(n(C)c3cc(OC)ccc23)[C@H]1CO	-16	-17
7	CCCNC(=O)C[C@H]1CC[C@@H]2[C@H](COC[C@@H](O)CN2Cc2cccc(F)c2)O1	8	6
8	C[C@@H](O)C#Cc1cnc2c(c1)C(=O)N([C@@H](C)CO)C[C@H](C)[C@@H](CN(C)Cc1ccccn1)O2	18	17
9	Cc1noc(C)c1S(=O)(=O)Nc1ccc2c(c1)C(=O)N([C@@H](C)CO)C[C@@H](C)[C@@H](CN(C)Cc1ccc3c(c1)OCO3)OCCCC[C@@H](C)O2	?	·
10	Cc1noc(C)c1S(=O)(=O)N(C)C[C@@H]1OCCCC[C@H](C)Oc2ccc(NC(=O)NC3CCCCC3)cc2C(=O)N([C@H](C)CO)C[C@@H]1C	-32	-31
11	CCS(=O)(=O)N1CC2(CN(Cc3ccc(OC)cc3)[C@H](CO)c3c2c2ccc(OC)cc2n3C)C1	-2	-2
12	COc1ccc(NC(=O)Nc2ccc3c(c2)C(=O)N([C@H](C)CO)C[C@@H](C)[C@@H](CN(C)S(=O)(=O)c2ccc(C)cc2)OCCCC[C@H](C)O3)cc1	13	1
13	COc1ccc(NC(=O)Nc2ccc3c(c2)C(=O)N([C@@H](C)CO)C[C@H](C)[C@@H](CN(C)S(=O)(=O)c2ccc(C)cc2)OCCCC[C@@H](C)O3)cc1	7	-4
14	O=C(Nc1ccccc1)N1CCCCN2[C@H](C1)[C@@H](c1ccc(-c3ccccc3F)cc1)[C@@H]2CO	?	·
15	CCCC#Cc1ccc2c(c1)O[C@@H](CN(C)C(=O)c1cnccn1)[C@H](C)CN([C@H](C)CO)S2(=O)=O	15	11
16	O=C(C[C@H]1CC[C@H]2[C@@H](COC[C@@H](O)CN2C(=O)c2cnccn2)O1)NCc1ccc(Cl)cc1	12	6
17	C[C@@H]1CN([C@@H](C)CO)C(=O)c2cc(NC(=O)C3CCCCC3)ccc2O[C@@H]1CN(C)Cc1ccc(C(=O)Nc2ccccc2N)cc1	-8	-3
18	C[C@H](CO)N1C[C@H](C)[C@@H](CN(C)Cc2ccc3c(c2)OCO3)Oc2ccc(NC(=O)Cc3ccccc3)cc2C1=O	-7	-10
19	Cc1ccc(S(=O)(=O)Nc2ccc3c(c2)C(=O)N([C@H](C)CO)C[C@@H](C)[C@@H](CN(C)S(=O)(=O)c2ccc(C)cc2)OCCCC[C@H](C)O3)cc1	-3	6
20	Cc1noc(C)c1NC(=O)Nc1ccc2c(c1)C(=O)N([C@H](C)CO)C[C@@H](C)[C@H](CN(C)C)O2	18	14
21	O=C(C[C@H]1CC[C@@H]2[C@H](COC[C@H](O)CN2CCC(F)(F)F)O1)NCc1ccc2c(c1)OCO2	13	7
22	C[C@H]1CN([C@@H](C)CO)C(=O)c2ccccc2-c2ccccc2CO[C@H]1CN(C)C(=O)Nc1ccc(-c2ccccc2)cc1	-31	-26
23	C[C@H](CO)N1C[C@H](C)[C@H](CN(C)C(=O)C2CCCCC2)Oc2cc(-c3ccc(C(=O)N(C)C)cc3)ccc2S1(=O)=O	-12	-9
24	CN(C)C(=O)C[C@H]1C=C[C@@H](NS(=O)(=O)c2ccccc2)[C@@H](CO)O1	2	-3
25	C[C@H]1CN([C@@H](C)CO)S(=O)(=O)c2ccc(-c3cccc(C(=O)N(C)C)c3)cc2O[C@@H]1CN(C)C	11	21

The closing 2 compounds of the section above lead into the next.
nr	Compound	Vaccinia inh	Vaccinia inh Venus
24	CN(C)C(=O)C[C@H]1C=C[C@@H](NS(=O)(=O)c2ccccc2)[C@@H](CO)O1	2	-3
25	C[C@H]1CN([C@@H](C)CO)S(=O)(=O)c2ccc(-c3cccc(C(=O)N(C)C)c3)cc2O[C@@H]1CN(C)C	11	21
26	Cc1noc(C)c1S(=O)(=O)Nc1ccc2c(c1)C(=O)N([C@@H](C)CO)C[C@@H](C)[C@H](CN(C)C(=O)Nc1ccc(F)cc1)OCCCC[C@@H](C)O2	-18	-12
27	C[C@@H]1CN([C@H](C)CO)C(=O)c2cc(NC(=O)c3ccccc3)ccc2O[C@@H](C)CCCCO[C@@H]1CN(C)C(=O)C1CCCCC1	?	·
28	COc1ccc(-c2cnc3c(c2)C(=O)N([C@H](C)CO)C[C@@H](C)[C@@H](CN(C)S(C)(=O)=O)O3)cc1	16	12
29	CN(C)C(=O)[C@@H]1[C@@H](CO)[C@@H]2Cn3c(ccc(-c4cccc(F)c4)c3=O)[C@H]1N2CC1CC1	4	0
30	C[C@@H]1CCCCO[C@H](CN(C)S(=O)(=O)c2ccc(F)cc2)[C@@H](C)CN([C@@H](C)CO)C(=O)c2cc(N(C)C)ccc2O1	-20	5
31	C[C@H]1CN([C@@H](C)CO)C(=O)Cc2cc(NS(C)(=O)=O)ccc2O[C@@H]1CN(C)Cc1ccc(Cl)c(Cl)c1	?	·
32	CC(C)CC#Cc1cnc2c(c1)C(=O)N([C@H](C)CO)C[C@H](C)[C@@H](CN(C)S(=O)(=O)c1ccccc1)O2	-11	-6
33	CC(C)NC(=O)N1[C@H](CO)[C@@H](c2ccccc2-c2ccc(F)cc2)[C@@H]1C#N	13	12
34	O=C(C[C@@H]1C[C@H]2c3cc(NC(=O)NC4CCCC4)ccc3O[C@H]2[C@H](CO)O1)NCC(F)(F)F	-4	-4
35	C[C@@H]1CN([C@@H](C)CO)C(=O)c2cc(C#Cc3ccc(F)cc3)cnc2O[C@@H]1CN(C)CC1CCOCC1	?	·
36	Cc1noc(C)c1S(=O)(=O)Nc1ccc2c(c1)C(=O)N([C@@H](C)CO)C[C@H](C)[C@@H](CN(C)S(=O)(=O)c1cccs1)O2	-24	-11
37	C=CCOC(=O)C1=C[C@H](c2csc3ccccc23)[C@@H](CCCO)[C@H](OCC)O1	-13	-21
38	COc1ccc2c3c(n(C)c2c1)[C@@H](CO)N(C(=O)c1ccc(F)cc1)CC31CN(CC2CC2)C1	-13	-16
39	CC(C)NC(=O)N[C@@H]1C=C[C@@H](CC(=O)NCc2ccc(Oc3ccccc3)cc2)O[C@H]1CO	3	5
40	CC(C)(C)[S@](=O)N1Cc2cc(C(=O)N3CCc4ccccc4C3)nc(-c3cccc(-c4ccncc4)c3)c2[C@@H]1CCO	-13	1
41	COCC(=O)N(C)C[C@@H]1Oc2ncc(-c3cccc(OC)c3)cc2C(=O)N([C@@H](C)CO)C[C@H]1C	16	9
42	C/C=C/c1ccc([C@H]2[C@H]3CN(C(=O)Nc4cc(F)ccc4F)CCCCN3[C@H]2CO)cc1	-19	-17
43	C[C@H](CO)N1C[C@H](C)[C@@H](CN(C)C(=O)Nc2cccc3ccccc23)Oc2ccc(NC(=O)Nc3ccccc3)cc2CC1=O	35	42
44	C[C@@H]1CN([C@H](C)CO)C(=O)c2cc(NC(=O)Cc3cn(C)c4ccccc34)ccc2O[C@@H]1CN(C)Cc1ccc(Cl)c(Cl)c1	?	·
45	O=C(Cc1ccccn1)NCC[C@@H]1CC[C@H](NC(=O)Nc2ccc(C(F)(F)F)cc2)[C@@H](CO)O1	-14	-5
46	C[C@@H]1CN([C@@H](C)CO)C(=O)c2cccc(NS(=O)(=O)c3ccccc3)c2O[C@H]1CN(C)S(=O)(=O)c1cn(C)cn1	23	7
47	Cc1noc(C)c1NC(=O)N(C)C[C@@H]1Oc2ccc(NC(=O)NC3CCCCC3)cc2C(=O)N([C@@H](C)CO)C[C@H]1C	13	1
48	CC(=O)N(C)C[C@@H]1Oc2ncc(C3=CCCC3)cc2C(=O)N([C@@H](C)CO)C[C@@H]1C	4	4
49	C[C@@H]1CN([C@H](C)CO)C(=O)c2cccc(NC(=O)Nc3ccc(F)cc3)c2O[C@H]1CN(C)S(=O)(=O)c1ccccc1	-7	-14
50	C/C=C/c1ccc([C@@H]2[C@@H](CO)N(C(=O)c3ccccc3)C23CN(C(C)=O)C3)cc1	2	6
51	Cc1ccc(-c2cnc3c(c2)C(=O)N([C@H](C)CO)C[C@@H](C)[C@H](CN(C)Cc2ccccc2C(=O)O)O3)cc1	5	7
52	CO[C@@H]1CN(C)C(=O)c2ccc(NC(=O)C3CC3)cc2OC[C@@H](C)N(C(=O)NC(C)C)C[C@@H]1C	6	9
53	N#C[C@H]1[C@H](c2ccc(-c3ccccc3F)cc2)[C@@H](CO)N1C(=O)C1CC1	-34	-19
54	COc1cccc(S(=O)(=O)N2CCCCN3[C@@H](CO)[C@@H](c4ccc(-c5cncnc5)cc4)[C@@H]3C2)c1	-3	-6
55	COc1ccc(NC(=O)Nc2cccc3c2O[C@@H](CN(C)S(=O)(=O)c2ccc(Cl)cc2)[C@@H](C)CN([C@H](C)CO)C3=O)cc1	?	·
56	COc1ccc(C[C@@H]2CCn3cc(nn3)COC[C@H](CC(C)C)NC2=O)cc1	22	8
57	O=C1CCC[C@@H]2c3[nH]c4ccccc4c3CCN12	11	8
58	COc1ccc2c3c([nH]c2c1)[C@H](CO)N(C(=O)c1ccccn1)CC31CN(S(C)(=O)=O)C1	25	4
59	C[C@H]1CN([C@@H](C)CO)C(=O)CCCn2nncc2CO[C@H]1CN(C)Cc1cccc(C(F)(F)F)c1	-13	-9
60	C[C@@H]1CN([C@H](C)CO)C(=O)c2cc(NC(=O)Nc3ccc4c(c3)OCO4)ccc2O[C@@H]1CN(C)S(=O)(=O)c1cn(C)cn1	15	10
61	C[C@H](CO)N1C[C@H](C)[C@@H](CN(C)Cc2ccc3c(c2)OCO3)Oc2c(NC(=O)Nc3cccc4ccccc34)cccc2C1=O	-1	7
62	CCNC(=O)[C@@H]1[C@@H](CO)[C@@H]2Cn3c(ccc(-c4ccccc4F)c3=O)[C@H]1N2S(C)(=O)=O	3	2
63	C[C@@H]1CCCCO[C@H](CN(C)C(=O)Nc2ccc3c(c2)OCO3)[C@@H](C)CN([C@@H](C)CO)C(=O)c2cc(NS(=O)(=O)c3ccccc3)ccc2O1	-6	-5
64	C[C@@H]1CN([C@@H](C)CO)S(=O)(=O)c2ccc(C#Cc3ccncc3)cc2O[C@H]1CN(C)C(=O)C1CCCCC1	?	·
65	C[C@@H]1CN([C@H](C)CO)C(=O)c2cc(NC(=O)Nc3ccc4c(c3)OCO4)ccc2O[C@@H](C)CCCCO[C@H]1CN(C)Cc1ccccc1	?	·
66	N#C[C@H]1[C@H](c2ccc(C3=CCCC3)cc2)[C@@H](CO)N1C(=O)C1CCOCC1	16	12
67	Cc1noc(C)c1NC(=O)Nc1ccc2c(c1)C(=O)N([C@@H](C)CO)C[C@H](C)[C@H](CN(C)Cc1ccc(C(F)(F)F)cc1)OCCCC[C@@H](C)O2	?	·
68	C[C@H](CO)N1C[C@H](C)[C@H](CN(C)C(=O)Nc2ccccc2)Oc2cc(C#CC3(O)CCCC3)ccc2S1(=O)=O	-11	-3
69	C[C@@H]1CN([C@H](C)CO)C(=O)c2cc(NC(=O)c3ccncc3)ccc2O[C@H]1CN(C)S(=O)(=O)c1cn(C)cn1	12	5
70	CC(C)CC#Cc1ccc2c(c1)O[C@@H](CN(C)Cc1cccc(F)c1)[C@@H](C)CN([C@@H](C)CO)S2(=O)=O	?	·
71	C[C@@H]1CN([C@@H](C)CO)C(=O)c2cc(NC(=O)Nc3ccc(F)cc3)ccc2O[C@H]1CN(C)S(=O)(=O)c1cccs1	3	7
72	CCCNC(=O)N(C)C[C@@H]1Oc2ncc(/C=C/c3ccccc3)cc2C(=O)N([C@@H](C)CO)C[C@@H]1C	2	-5
73	O=C(NC1CCCCC1)N1CC(=O)N2[C@H](CO)[C@@H](c3ccc(-c4ccccc4)cc3)[C@H]2C1	?	·
74	C[C@H]1CN([C@@H](C)CO)C(=O)c2cc(NC(=O)Nc3ccc(C(F)(F)F)cc3)ccc2O[C@H]1CN(C)Cc1ccc(-c2ccccc2)cc1	?	·

Exported with two lines to a compound: part of the list above
Every second line gives: Vaccinia inh | Vaccinia inh Venus
66: N#C[C@H]1[C@H](c2ccc(C3=CCCC3)cc2)[C@@H](CO)N1C(=O)C1CCOCC1
    16 | 12
67: Cc1noc(C)c1NC(=O)Nc1ccc2c(c1)C(=O)N([C@@H](C)CO)C[C@H](C)[C@H](CN(C)Cc1ccc(C(F)(F)F)cc1)OCCCC[C@@H](C)O2
    ? | ·
68: C[C@H](CO)N1C[C@H](C)[C@H](CN(C)C(=O)Nc2ccccc2)Oc2cc(C#CC3(O)CCCC3)ccc2S1(=O)=O
    -11 | -3
69: C[C@@H]1CN([C@H](C)CO)C(=O)c2cc(NC(=O)c3ccncc3)ccc2O[C@H]1CN(C)S(=O)(=O)c1cn(C)cn1
    12 | 5
